Screening data (PubChem)
TRPML1 inh: blocks the human TRPML1 channel; hit rate 0.02% among 390,000; Q9GZU1; TRPML1-inducible cells, Ca2+ dye fluorescence, FDSS; hits give low values; inhibition of EC80 agonist-evoked calcium signal; activity change, negative = inhibition, % (test concentration not listed); in the data active means activity change below about -50%; inconclusive means about -30% to -50%; inactive means above about -30%;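 note: stimulus is agonist 54-4 at its EC80 concentration; % is set by controls: 0 for no effect and ±100 for the full control effect; compound concentration not given in the record; the text of the record puts the active cut at -80%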
Target sequence (Q9GZU1 whole entry, looked up): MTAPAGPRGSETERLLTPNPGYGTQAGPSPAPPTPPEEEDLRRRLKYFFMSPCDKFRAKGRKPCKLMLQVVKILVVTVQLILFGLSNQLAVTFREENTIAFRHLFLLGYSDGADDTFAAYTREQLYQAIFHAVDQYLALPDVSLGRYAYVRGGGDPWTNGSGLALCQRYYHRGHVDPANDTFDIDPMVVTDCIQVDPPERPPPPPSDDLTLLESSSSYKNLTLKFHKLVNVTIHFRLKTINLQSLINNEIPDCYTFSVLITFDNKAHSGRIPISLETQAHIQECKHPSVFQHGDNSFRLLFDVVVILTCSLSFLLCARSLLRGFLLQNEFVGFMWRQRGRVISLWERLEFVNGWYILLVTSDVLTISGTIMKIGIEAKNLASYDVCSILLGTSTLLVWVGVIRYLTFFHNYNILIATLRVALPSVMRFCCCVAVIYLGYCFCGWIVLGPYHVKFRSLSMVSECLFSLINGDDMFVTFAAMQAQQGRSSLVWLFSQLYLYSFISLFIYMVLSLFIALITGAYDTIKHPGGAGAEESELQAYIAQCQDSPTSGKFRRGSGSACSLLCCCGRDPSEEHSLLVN
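Calcium fluorescence in TRPML1-DL cells induced overnight with Tet: a 110 s read after compound pin addition, then a 110 s antagonist read after challenge with 54-4 at 4 uM final (EC80).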
gsp antag: antagonizes gsp, the McCune-Albright syndrome mutation; gsp-mutant cells, cAMP HTRF, 30 min; control for the full effect not named in the record; Potency, µM (titrated, usually from 76.9 µM), for inactives: at the highest dose activity change, negative = inhibition, hits mostly inhibitors; hit rate 0.4% among 340,000; AID 624288; active = falling curve of any shape with a large fitted effect; inconclusive = falling curve, mostly with a smaller effect; inactive = flat or rising curve; cell line not stated here;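 note: intracellular cAMP measured with PDE inhibitor Ro 20-1724 present during compound exposure; potency is the fitted concentration of half-maximal effect; % is set by controls: 0 for no effect and ±100 for the full control effect; nearly all actives have a fitted effect of over 65% in size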
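Measurement of cellular cAMP by homogeneous time-resolved fluorescence following a 30 min compound exposure at 37C. The PDE inhibitor […] was present throughout; the assay buffer was DPBS with 0.05% BSA and 0.005% Tween 20.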
gsp agonist: activates gsp, the McCune-Albright syndrome mutation. Potency, µM (titrated, usually from 76.9 µM), inactives show at the top dose activation (cAMP increase), most hits filed as activators. gsp mutant cells, cAMP HTRF, 30 min; control for the full effect not named in the record. hit rate 0.13% among 340,000; active = well fitted activation curve with a large enough effect; inconclusive = small, poorly fitted or top-dose-only effect, or another doubt; inactive = no such curve, though single readings can be large or run the other way; cell line not stated here;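 note: phosphodiesterase inhibitor Ro 20-1724 added with compounds to block cAMP breakdown; potency is the fitted concentration of half-maximal effect; nearly all actives have a fitted effect of over 60% in size; about a fifth of the inactives were tested at one dose only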
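Cells in DMEM/10% FBS with G418 were pretreated with compounds in DMSO plus […] (300 uM stock) for 30 min at 37C. cAMP was measured by HTRF (cAMP-d2 plus anti-cAMP antibody-K) after 30 min at room temperature.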
TRPML1 ag: agonists of human TRPML1 channel; Q9GZU1; TRPML1-expressing cells, Ca2+ dye fluorescence, FDSS; host cell line not named in the record; reference of the full effect not given here; activation, % (no concentration beside the values); hit rate 0.12% among 410,000; in the data active = activation above about 50%; inconclusive = about 30% to 50%; inactive = below about 30%; note: 0% is about no effect; the text of the record puts the active cut at 80%
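Cells: TRPML1-DL, 1X Tet inducer, ~16 h at 37 degrees C/5% CO2. Dye: ABD Ca8 no-wash + quencher, 45-90 min RT. Read: 10 s baseline, compound add, 110 s agonist phase; 54-4 EC80 (4uM final), 110 s antagonist phase.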
Menin MLL FP FL: inhibitors of human menin-MLL interaction, wild-type MLL peptide; Fluorescence polarization, fluorescein-MLL peptide displacement from menin; FP activity change, % at 61.4 µM; 290,000 tested, under 10 active; inconclusive = falling polarisation curve, or a change in total fluorescence; inactive = total fluorescence flat and polarisation flat or rising; no compound was filed as active; the % refers to the polarisation; negative = inhibition;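 note: % of control where 0% means no effect; inhibitors lower the polarisation; unlabelled MLL peptide was the positive control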
ClpP mod: qHTS Assay for Activators of ClpP. purified B. subtilis ClpP, FRET peptide cleavage, 20 min. hit rate 1.9% among 340,000. ATP-dependent Clp protease proteolytic subunit (Bacillus subtilis (strain 168)), P80244. Potency, µM (highest dose often 57.5 µM), inactives show top-dose activity change, negative = active; active = well fitted falling curve with a large enough effect; inconclusive = small, poorly fitted or top-dose-only effect; inactive = no such curve, though single readings can be large or run the other way; note: potency is the fitted concentration of half-maximal effect; the source files actives as falling curves though it sought activators and does not explain the sign; nearly all actives have a fitted effect of over 65% in size; many hits overshoot -100%
Target sequence (P80244 whole entry, looked up): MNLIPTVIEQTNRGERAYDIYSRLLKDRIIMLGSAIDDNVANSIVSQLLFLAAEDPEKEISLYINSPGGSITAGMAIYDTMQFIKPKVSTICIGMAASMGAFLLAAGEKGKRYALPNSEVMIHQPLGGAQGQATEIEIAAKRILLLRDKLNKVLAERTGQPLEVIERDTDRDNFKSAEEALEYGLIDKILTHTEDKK
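Purified B. subtilis ClpP, 10 microg/mL final in Tris/HCl pH8 with KCl, BSA, glycerol and Tween-20, cleaved an Abz/nitrotyrosine-quenched decapeptide. Fluorescence (ex 320, em 430) was read at 0 and 20 min at room temperature. Delta was normalized to 5.8 microM ADEP and DMSO/no-enzyme controls.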
Numbers without * were called inactive; ? = inconclusive; . = not tested or not shown; & = joins results of further samples; [ ] = another dose, or the depositor's remark.

SMILES	TRPML1 inh	gsp antag	gsp agonist	TRPML1 ag	Menin MLL FP FL	ClpP mod
COC(=O)C1=C(c2ccc(F)cc2OCc2ccccc2)C[C@@H]2CC[C@H]1N2C(=O)NCc1ccc(C(F)(F)F)cc1	-9	-18%	.	-0.4	.	-3.9%
CN(c1ccccc1)P(=O)(N1CC1)N1CC1	19	6%	-22%	0.6	.	-1.7%
COc1ccccc1NS(=O)(=O)c1cc(NC(=O)c2ccc(Cl)nc2)ccc1N1CCCC1	13	-4%	-33%[inhibitor]	3.3	.	-1.3%
O=[N+]([O-])c1ccc(N2CCCNCC2)c2ncccc12	-4	3%	-11%	-0.1	2.8	-1.4%
C[C@]12CCC(=O)C=C1CC[C@@H]1[C@@H]2CC[C@]2(C)C(=O)CC[C@@H]12	3	-1%	.	-0.9	-2.5&2.3&1.9	-0.7%
CCC1([N+](=O)[O-])COP(=O)(NCc2cccnc2)OC1 (configuration not stated)	15	2%	?	0.4	.	-1.5%
C=C(C=O)CC1CC(O)[C@]2(C)OC3C[C@@H]4OC5C[C@]6(C)O[C@]7(C)CCC8OC9C[C@]%10(C)OC(/C(C)=C\CO)C(O)CC%10OC9CC(C)C8OC7CC6O[C@]5(C)C/C=C\C4OC3CC2O1 (some centres not stated)	-20	-2%	-106%[inhibitor]	1.3	.	1.9%
Nc1c(C(=O)Nc2ccc(F)c(Cl)c2)sc2nc3c(cc12)N1CCC3CC1	-12	.	.	0.1	.	-4.4%
CC[C@H](C)[C@@H](C(=O)N1CCCC1c1nccs1)N(C)C(=O)[C@H](CC(C)C)N(C)C(=O)[C@H](Cc1ccc(OC)cc1)N(C)C(=O)/C=C(\C)OC (some centres not stated)	50	-15%	.	0.1	.	-0.9%
CCN(CC)N=O	-7	-5%	.	-0.1	.	0.7%
CCCCn1c(O)c(C(C)=NCc2cc(OC)cc(OC)c2)c(=O)[nH]c1=O	2	-18%	4%	2.2	10	0.0%
COc1cccc(C(=O)C2CN(C)CC2c2ccc(Cl)cc2)c1 (configuration not stated)	-4	10%	-2%[15.4 µM]	-1.0	1.1	0.8%
N#Cc1cc2c(nc1SCC(=O)Nc1ccc(F)c(Cl)c1)C1CCN2CC1	-2	.	.	1.9	.	-1.5%
Cn1cc(C(=O)OCC(=O)Nc2ccccc2Cl)c2ccccc21	0	?	-2%	0.4	.	-2.3%
COc1ccc(C(=O)C2CCCN(Cc3cnc(C)s3)C2)c(OC)c1 (configuration not stated)	0	3%	-16%[15.4 µM]	-0.5	1.1	.
O=[N+]([O-])c1cc2c(cc1CNCCc1ccc3c(c1)OCO3)OCO2	3	8%	-2%	0.3	1.5	-9.3%
COC(=O)C1=C(c2ccc(Cl)c(C(F)(F)F)c2)C[C@@H]2CC[C@H]1N2C(=O)N1CCC(O)(c2ccc(Cl)cc2)CC1	2	-11%	.	0.0	.	-3.6%
CC1CCN2c3nc4ccccn4c(=O)c3CC3(C(=O)N(C)C(=O)N(C)C3=O)C2C1 (configuration not stated)	2	-9%	-12%	-0.1	-0.8	-18%
Cc1ccc(-n2c(C)nc3cc(Cl)ccc3c2=O)nc1	15	2%	-7%	0.8	0.0	-1.9%
C=CCn1c(O)c(/C(C)=N/NC(=S)Nc2ccccc2)c(=O)[nH]c1=O	-1	0%	2%[15.4 µM]	2.0	11	.
COC(=O)c1ccc(N2C(=O)CC(N3CCC(O)(c4ccc(Br)cc4)CC3)C2=O)cc1 (configuration not stated)	-9	?	-37%[inhibitor]	1.4	2.4	1.9%
COc1ccc(C(=O)CN2CCCCC2)cc1	-3	9%	-6%	0.1	3.4	-1.0%
Nc1ccc(N=Nc2ccccc2)cc1	-17	-3%	0%	0.6	-1.6	.
O=C1CN=C(c2cc([N+](=O)[O-])ccc2Cl)c2cc([N+](=O)[O-])ccc2N1	-19	3%	-16%[15.4 µM]	0.3	.	.
CC(=O)Nc1cc(C(=O)N2CCC3(CC2)OCCO3)ccc1Sc1ccc(F)cc1	-3	-5%	-38%	-0.2	-1.3	0.6%

Brought forward from above: two entries, followed by the next part.
SMILES	TRPML1 inh	gsp antag	gsp agonist	TRPML1 ag	Menin MLL FP FL	ClpP mod
O=C1CN=C(c2cc([N+](=O)[O-])ccc2Cl)c2cc([N+](=O)[O-])ccc2N1	-19	3%	-16%[15.4 µM]	0.3	.	.
CC(=O)Nc1cc(C(=O)N2CCC3(CC2)OCCO3)ccc1Sc1ccc(F)cc1	-3	-5%	-38%	-0.2	-1.3	0.6%
C=CCn1c(O)c(C(C)=NCCCO)c(=O)[nH]c1=O	1	7%	11%	-0.2	12	-0.2%
CCCNc1oc(-c2cccc3ccccc23)nc1C#N	4	12%	?	-0.4	-1.4	28µM*
COC(=O)N(c1ccccc1)P(=O)(Oc1ccccc1)Oc1ccccc1	-2	5%	-1%[15.4 µM]	-1.9	0.1	-0.3%
CN1CCN(/N=C/c2c[nH]c3ccccc23)CC1	-9	-36%	1%[15.4 µM]	0.0	-0.3	-18%
COc1cccc(/C=C/c2nc3ccccc3c(=O)n2-c2ccc(Cl)cc2)c1OC	5	.	.	1.4	.	-5.2%
Cc1cccc(C)c1NC(=O)CN(C)CC(=O)Nc1ccc(C#N)c(Cl)c1	-6	8%	?	0.7	0.1	1.4%
CCOc1ccc2nc(N=Nc3c(O)[nH]c(=S)[nH]c3=O)sc2c1	?	-146%	22%[15.4 µM]	-1.4	0.8	.
C[C@]12CC[C@H](O)C[C@H]1CCC1C2CC[C@]2(C)[C@@H](c3ccc(=O)oc3)C[C@H]3O[C@]132 (some centres not stated)	.	.	.	1.1	3.2	0.0%
O=C1NC(=O)N(Cc2cccs2)C(=O)/C1=C/c1ccc(N2CCOCC2)cc1	7	-17%	16%[15.4 µM]	0.9	?	-0.5%
O=C(c1cc2cc(Br)ccc2[nH]1)N1CCC2(CC1)OCCO2	-3	-2%	-9%	0.6	.	-2.5%
O=C(NCc1ccccc1)c1cccn(Cc2cccc(Cl)c2)c1=O	4	-2%	3%	-0.1	2.6	4.4%
CC(C)NC(=O)Cn1cc(C(=O)c2ccccc2F)c2ccccc21	-6	-6%	11%	0.2	1.6	-1.8%
C[C@](N)(CCP(=O)(O)O)C(=O)O	6	9%	.	0.7	-25	-5.3%
C[C@H]1CCC[C@@H](O)CCC/C=C/c2cc(O)cc(O)c2C(=O)O1	15	-2%	?	2.0	-0.8	-2.0%
CCOP(=O)(Cc1ccccc1)OCC	-1	-1%	-3%	-0.3	.	-1.3%
CCN(CC)CCC(=O)O[C@H]1CC[C@]2(C)C3CC[C@@]4(C)C(CC[C@]4(C)O)C3CC[C@H]2C1 (some centres not stated)	8	3%	-56%[inhibitor]	0.9	.	-1.7%
COc1cccc(-n2c(/C=C/c3ccc(O)c(O)c3)nc3ccccc3c2=O)c1	52	-11%	-14%	3.4	?	.
O=C(O)C1C2CCC(O2)C1C(=O)Nc1cccc(Br)c1 (configuration not stated)	.	5%	5%	.	0.5	-1.4%
Cc1ccc(NC2=NCCCS2)cc1Cl	-19	-1%	-12%[15.4 µM]	-0.3	1.9	.
CC1(C)C(=O)CCC2C1=CCC1C2CCC2(C)C(O)CCC12 (configuration not stated)	15	-11%	13%[15.4 µM]	-0.2	.	0.8%
C(#CCN1CCOCC1)COCC#Cc1ccccc1	8	2%	9%	2.2	2.3	0.7%
Cc1nnc(N2CCC(C(=O)NCc3ccc(N(C)C)cc3)CC2)c2nn(-c3ccccc3)c(C)c12	11	.	.	1.4	.	?
NC(C(=O)O)c1cc(=O)[nH]o1 (configuration not stated)	11	-7%	.	0.8	1.5	-1.7%
O=C(C(=O)N1CCOCC1)c1cn(Cc2c(F)cccc2Cl)c2ccccc12	3	9%	-7%[15.4 µM]	0.2	-5.0	.
c1cncc(CNC2=NCCC2)c1	0	11%	19%	0.2	1.4	2.4%

Going on with the list:
SMILES	TRPML1 inh	gsp antag	gsp agonist	TRPML1 ag	Menin MLL FP FL	ClpP mod
O=C(NCC1=C(c2ccc3ccccc3c2)C[C@@H]2CC[C@H]1N2Cc1ccco1)c1cccs1	22	.	-4%	-0.2	.	-4.4%
CCN(CC)P(=O)(/C=C(\Cl)c1ccccc1)/C=C(\Cl)c1ccccc1	-8	12%	-49%[inhibitor]	0.1	-1.8	0.8%
N#CCCn1cc(C(=O)Nc2ccc(F)cc2)c(-c2ccc([N+](=O)[O-])cc2)n1	-14	-9%	-2%	0.5	-4.6	0.7%
CC(=O)OC1(c2ccccc2)CCN(C2CCCCC2)CC1C (configuration not stated)	-14	11%	-26%	-0.1	0.8	-3.0%
O=C(Nc1ccccc1)N1CC2CC(C1)c1cccc(=O)n1C2 (configuration not stated)	24	6%	-9%	0.5	-3.6	-3.9%
CN(Cc1ccccc1)C(=O)c1cccc(NC(=O)Cc2ccc([N+](=O)[O-])cc2)c1	-7	?	-17%	0.1	.	3.5%
C#CCOCOCC#CCN(CC)CC	-9	15%	1%	-0.6	4.4	0.7%
O=C(Nc1ccncc1)c1cccn(Cc2ccccc2)c1=O	19	4%	20%	0.6	-1.6	.
O=C(CN1CCCCC1)c1cccc(Br)c1	2	10%	-18%	-0.6	2.0	0.9%
CC(=NCCCO)c1c(O)n(Cc2ccccc2)c(=O)[nH]c1=O	56	-1%	13%	-1.3	3.3	0.6%
CN1[C@H]2CC[C@@H]1C(C(=O)N1CCOCC1)=C(O)C2	-1	6%	-33%[inhibitor]	0.7	.	0.5%
COC[C@H]1OC(=O)c2coc3c2[C@@]1(C)C1=C(C3=O)[C@@H]2CCC(=O)[C@@]2(C)C[C@H]1OC(C)=O	9	-12%	13%	3.0	.	-2.5%
CN(C)c1ccc(C=C2C(=O)NC(=O)NC2=O)cc1[N+](=O)[O-]	9	-16%	13%[15.4 µM]	-0.5	-0.5	.
Cc1ccc(C(=O)NC2CC3CCC(C2)N3)cc1 (configuration not stated)	8	23%	-3%	-0.3	-0.6	1.8%
C[N+]1(CC2COC(c3ccco3)O2)CCCCC1 (configuration not stated)	-21	.	2%[15.4 µM]	-0.5	-3.8	.
COc1ccc(CN2CCN(c3ccccc3F)CC2)cc1O	12	3%	-4%	0.0	-0.9	-1.1%
COC(=O)C1=C(N)Oc2c(c(=O)oc3ccccc23)C1c1cccnc1 (configuration not stated)	3	-2%	-16%	0.6	0.9	-1.9%
CN1CCC2(CC1)NC(=O)c1ccccc1N2	-18	12%	-4%	0.2	-0.4	3.6%
COC(=O)C1=C(c2ccc(-c3ccccc3)c(F)c2)C[C@@H]2CC[C@H]1N2C(=O)NC1Cc2ccccc2C1	11	-10%	.	2.0	.	-15%
CC12C=CC(=O)C=C1CC(O)C1C2CCC2(C)C1CCC2(C)O (configuration not stated)	-2	5%	28%	-0.1	.	.

Some of the compounds tested; the hit share may differ from the screen's.
